Choline anaer gr: choline-fed anaerobic bacterial growth inhibition | Gram-negative bacterium anaerobic choline minimal medium, absorbance growth; active compounds read low; many inactives read as strong as hits in the columns shown | calls only | hit rate 0.2% among 55,000;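 active means growth z-score on choline under -2 at 7 or 20 h with little or no fall on glycerol, limits in tiers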;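 further: stock transfer was 300 nL into about 50 µL; the organism is E. coli; final concentration not given here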
Choline anaer gr early: recorded beside Choline anaer gr, whose call it bears; z-score; measured here: choline growth z-score, timepoint 1;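 score of optical density at 7 h as mean of two plates; lower means less growth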
* hit, by the source's call; & = joins results of further samples. Not all compounds are listed. The share of hits here may be higher or lower than overall.

Screening CC(C)c1ccc(NC(=O)Cn2nc(S(=O)(=O)c3ccccc3)ccc2=O)cc1 returned Choline anaer gr inactive and Choline anaer gr early 0.86.
COc1ccc(NS(=O)(=O)c2cc(-c3nc(C(C)(C)C)cs3)cs2)cc1F was read as Choline anaer gr inactive and Choline anaer gr early -1.3.
`Cc1ccc(C(=O)NCCC2CCN(C(=O)c3ccc(F)cc3)CC2)cc1` gave Choline anaer gr inactive and Choline anaer gr early -0.21.
`CC1CCC(N2C(=O)c3cc4occc4n3CC2(C)C(=O)NC2CCCCC2)CC1` (stereo unspecified) gave Choline anaer gr inactive and Choline anaer gr early -0.2.
`O=C(Nc1cccc(C(=O)N2CCCC(C(=O)NCCc3ccccc3)C2)c1)c1ccccc1Cl` (stereo unspecified) gave Choline anaer gr inactive and Choline anaer gr early -0.56.
Screening CCOc1ccc(C2=NC(c3ccc(F)cc3)=Nc3ccc(OCC)cc3N2)cc1 returned Choline anaer gr inactive and Choline anaer gr early 0.49.
O=c1nc2ccccc2c2n1CC(CN1CCN(c3ccccc3)CC1)N2 (stereo unspecified) was read as Choline anaer gr inactive and Choline anaer gr early 0.27.
O=C(Cn1c(=O)oc2ccccc21)N1CCCCC1 was read as Choline anaer gr inactive and Choline anaer gr early -0.11.
For Cc1nn(CCCC(=O)NCCC(C)N2CCCC2)c(=O)c2c(-n3cccc3)n(-c3ccccc3)nc12 (stereo unspecified) the results were Choline anaer gr inactive and Choline anaer gr early -0.68.
`c1ccc(SCc2nnc3sc(-c4ccccc4)nn23)cc1` gave Choline anaer gr inactive and Choline anaer gr early 0.31.
For CCN(C(=O)CN1C(=O)CC(C)Sc2ccc(S(=O)(=O)N3CCC(C)CC3)cc21)c1ccccc1 (stereo unspecified) the results were Choline anaer gr inactive and Choline anaer gr early 0.11.
Screening CC(C)NC(=O)CCn1c(=O)c2ccccc2n2c(SCc3cccc(F)c3)nnc12 returned Choline anaer gr inactive and Choline anaer gr early 0.57.
CCCCN(C)[C@H]1CS(=O)(=O)C[C@@H]1S(=O)(=O)c1cccs1 was read as Choline anaer gr inactive and Choline anaer gr early -0.39.
`CN1C(=O)CCc2cc(NC(=O)C3CCCO3)ccc21` (stereo unspecified) gave Choline anaer gr inactive and Choline anaer gr early 0.19.
Cc1noc(C)c1CCNC(=O)CN1C(=O)CN(C(=O)NCc2ccccc2)c2ccccc21 was read as Choline anaer gr inactive and Choline anaer gr early 0.41.
CC(C)c1ccc(S(=O)(=O)N2CCN(c3ccccc3F)CC2)cc1 was read as Choline anaer gr inactive and Choline anaer gr early 0.16.
`O=C(C1CC(c2ccc(F)cc2)=NO1)N1CCOCC1` (stereo unspecified) gave Choline anaer gr inactive and Choline anaer gr early -1.2.
For Cc1cc(N(C)C)n2nc(-c3ccccc3)nc2n1 the results were Choline anaer gr inactive and Choline anaer gr early 1.2.
CCc1cc(C2CCCN2C(=O)c2ccn(CC)n2)on1 (stereo unspecified) was read as Choline anaer gr inactive and Choline anaer gr early 0.33.
`CC(=O)O[C@H]1C[C@@H]2CC[C@@H]3[C@H](CC[C@@]4(C)[C@H]3C[C@H]([N+]3(C)CCCCC3)[C@@H]4OC(C)=O)[C@@]2(C)C[C@@H]1N1CCCCC1` gave Choline anaer gr inactive and Choline anaer gr early 0.16&-1.3.
`CCOC(=O)c1cc(C)nc2c1c(=O)n(Cc1nc(-c3ccc(C(C)C)cc3)oc1C)c(=O)n2C` gave Choline anaer gr inactive and Choline anaer gr early 0.1.
CCOc1ccc(N(Cc2nc3nc(C)cc(C)n3n2)S(C)(=O)=O)cc1 was read as Choline anaer gr inactive and Choline anaer gr early -0.3.
Screening O=C(NCC(c1cccnc1)c1c[nH]c2ccccc12)Nc1cccc(Br)c1 (stereo unspecified) returned Choline anaer gr inactive and Choline anaer gr early -0.01.
Screening CCC(C)NS(=O)(=O)c1ccc(N2C(=O)CCS2(=O)=O)cc1 (stereo unspecified) returned Choline anaer gr inactive and Choline anaer gr early 0.07.
For O=C1Nc2ccccc2C1Cc1cccc(Br)c1 (stereo unspecified) the results were Choline anaer gr inactive and Choline anaer gr early 0.73.
`CC(C)CCn1nc2ccc(S(=O)(=O)N3CCSCC3)cn2c1=O` gave Choline anaer gr inactive and Choline anaer gr early 0.59.
Screening O=c1c(S(=O)(=O)c2ccc(F)c(Cl)c2)c[nH]c2cc(Cl)c(F)cc12 returned Choline anaer gr inactive and Choline anaer gr early 0.13.
Screening CCn1c(=O)[nH]c2cc(-c3noc(C(C)NC(=O)c4ccccc4)n3)ccc21 (stereo unspecified) returned Choline anaer gr inactive and Choline anaer gr early -0.18.
CCCCn1c(=O)c2sccc2n2c(CCC(=O)NC3CCC(C)CC3)nnc12 (stereo unspecified) was read as Choline anaer gr inactive and Choline anaer gr early 1.5.
Screening Cc1ccc(NC(=O)NCCc2nc3cccnc3n2Cc2ccccc2)cc1Cl returned Choline anaer gr inactive and Choline anaer gr early 0.27.
COC(=O)c1ccccc1NC(=O)Cn1c(SCC(=O)Nc2ccc(C)cc2)nc2ccccc21 was read as Choline anaer gr inactive and Choline anaer gr early 0.25.
For CCc1ccc(CNc2nc(-c3nnc(-c4cccc(C)c4)o3)nc3ccccc23)cc1 the results were Choline anaer gr inactive and Choline anaer gr early 0.96.
For O=C1c2ccccc2C(=O)N1c1nc2n(n1)C(c1ccccc1)C=C(c1ccc(Br)cc1)N2 (stereo unspecified) the results were Choline anaer gr inactive and Choline anaer gr early 0.29.
`COC(=O)c1cc(S(=O)(=O)NCCC(=O)NC(C)C)cn1C` gave Choline anaer gr inactive and Choline anaer gr early -0.35.
Screening CC(=O)N1c2ccc(S(=O)(=O)NC(Cc3ccccc3)C(=O)Nc3nccs3)cc2CC1C (stereo unspecified) returned Choline anaer gr inactive and Choline anaer gr early 1.
For Cc1ccc(S(=O)(=O)N(Cc2ccccc2)Cc2nc3nc(C)cc(C)n3n2)cc1 the results were Choline anaer gr inactive and Choline anaer gr early -0.02.
CCc1nc(-c2csc(S(=O)(=O)Nc3ccc(Br)cc3F)c2)no1 was read as Choline anaer gr inactive and Choline anaer gr early 0.01.
Screening O=C(CCC(=O)N1CCCN(c2nc3cccnc3s2)CC1)NCCN1CCCC1 returned Choline anaer gr inactive and Choline anaer gr early -1.2.
For CCN1CCCC1CNS(=O)(=O)c1ccc2c(c1)N(Cc1noc(C3CCC3)n1)C(=O)CO2 (stereo unspecified) the results were Choline anaer gr inactive and Choline anaer gr early 0.59.
For Nc1c(-c2nc(-c3ccc(F)cc3)no2)nnn1-c1ccccc1Cl the results were Choline anaer gr inactive and Choline anaer gr early 1.2.
`Cc1nn(-c2ccccc2)c2ccn(CC(=O)NCCN3CCN(C)CC3)c(=O)c12` gave Choline anaer gr inactive and Choline anaer gr early -0.33.
Screening CNC(=O)N1CCc2cc(S(=O)(=O)NC3CCCC3)ccc21 returned Choline anaer gr inactive and Choline anaer gr early -2.1.
For CC(C)N1CCN(c2ccc(OC[C@H]3CO[C@](Cn4cncn4)(c4ccc(Cl)cc4Cl)O3)cc2)CC1 the results were Choline anaer gr inactive and Choline anaer gr early 0.25.
CNC(=O)c1ccc(-c2nc3cc(NS(=O)(=O)c4cc(C)c(C)cc4C)ccc3n2C)cc1 was read as Choline anaer gr inactive and Choline anaer gr early 0.44.
Screening Cc1ncsc1CN1CCCC(c2nncn2-c2ccccc2)C1 (stereo unspecified) returned Choline anaer gr inactive and Choline anaer gr early 0.13.
O=c1[nH]ccn(Cc2ccc(F)cc2)c1=O was read as Choline anaer gr inactive and Choline anaer gr early 0.32.
`CCS(=O)(=O)c1ccc(-c2ccc(NC(=O)c3ccc(F)cc3)cc2)nn1` gave Choline anaer gr inactive and Choline anaer gr early -0.44.
Screening CCOC(=O)c1ccc(NC(c2ccccn2)c2ccc3cccnc3c2O)cc1 (stereo unspecified) returned Choline anaer gr inactive and Choline anaer gr early 0.09.
O=C(CN1C(=O)c2ccccc2C1=O)NCc1cc(=O)n2nc(-c3ccccc3Cl)sc2n1 was read as Choline anaer gr inactive and Choline anaer gr early -0.53.
Cc1cc(-c2csc(S(=O)(=O)Nc3ccc(Br)c(C)c3)c2)on1 was read as Choline anaer gr inactive and Choline anaer gr early -0.45.
`Cc1cccc(N2CCN(CCNC(=O)c3csc(-c4ccncc4)n3)CC2)c1C` gave Choline anaer gr inactive and Choline anaer gr early -1.6.
CCn1c(N2CCN(C(=O)Nc3ccccc3OC)CC2)nc2ccccc21 was read as Choline anaer gr inactive and Choline anaer gr early -0.55.
`O=C(CN1C(=O)CSc2ccc(C(=O)N3CCCC3)cc21)Nc1ccc(Cl)cn1` gave Choline anaer gr inactive and Choline anaer gr early -1.1.
`O=C(NC1CCCC1)c1ccc2ccnc(N3CCN(c4ccc(F)cc4)CC3)c2c1` gave Choline anaer gr inactive and Choline anaer gr early -0.52.
CN1C(=O)C(Cc2c[nH]c3ccccc23)NC1=S (stereo unspecified) was read as Choline anaer gr inactive and Choline anaer gr early -0.03.
COc1ccc(-c2ccc(SCc3nc(-c4cc(OC)c(OC)c(OC)c4)no3)nn2)cc1OC was read as Choline anaer gr inactive and Choline anaer gr early 0.34.
For COc1ccccc1N(Cc1nc2nc(C)cc(=O)n2[nH]1)C(=O)COc1ccccc1 the results were Choline anaer gr inactive and Choline anaer gr early 0.57.
For CC(=O)Nc1ccc2[nH]c(=O)cc(C)c2c1 the results were Choline anaer gr inactive and Choline anaer gr early 0.21.
For COc1ccc(NC(=O)C2CCn3c(nc4ccccc43)C2)c(OC)c1 (stereo unspecified) the results were Choline anaer gr inactive and Choline anaer gr early 0.88.
O=C(CN1C(=O)C2CCCCN2c2ccc(C(=O)N3CCCCC3)cc21)NC1CCCC1 (stereo unspecified) was read as Choline anaer gr inactive and Choline anaer gr early 0.25.
For Cc1cc(C)c(/C=C/c2onc(C)c2S(=O)(=O)N2CCCC(C(=O)Nc3nc(C)cs3)C2)c(C)c1 (stereo unspecified) the results were Choline anaer gr inactive and Choline anaer gr early 0.89.
`CNC(=O)N1Cc2c(C)nn(-c3ccccc3)c2-n2cccc2C1c1cccc(C)c1` (stereo unspecified) gave Choline anaer gr inactive and Choline anaer gr early 0.25.
CCS(=O)(=O)c1ccc(OCc2cc(=O)n3oc(C)cc3n2)c(NC(=O)COc2ccccc2)c1 was read as Choline anaer gr inactive and Choline anaer gr early -0.06.
Screening CCc1ccc(C(=O)N2CCN(c3nc4ccccc4n(CC)c3=O)CC2)cc1 returned Choline anaer gr inactive and Choline anaer gr early -0.58.
Screening CN(Cc1ccccc1)C(=O)c1nc(-c2ccccc2)n(-c2cccc(Cl)c2)n1 returned Choline anaer gr inactive and Choline anaer gr early 0.42.
CCOc1ccc(-c2nonc2NC(=O)C(C)Oc2ccc(Cl)c(C)c2)cc1C (stereo unspecified) was read as Choline anaer gr inactive and Choline anaer gr early 0.74.
Screening O=C(CN1C(=O)CC(c2ccccc2Cl)=Nc2ccccc21)Nc1ccccc1 returned Choline anaer gr inactive and Choline anaer gr early 0.47.
`Cc1ccc(-c2nc3cnc(Br)cn3c2Nc2ccc3c(c2)OCCO3)cc1` gave Choline anaer gr inactive and Choline anaer gr early 0.11.
For CC(C)c1ccc(NC(=O)C2CCCN(c3ncnc4c3oc3ccccc34)C2)cc1 (stereo unspecified) the results were Choline anaer gr inactive and Choline anaer gr early 0.11.
`COC(=O)c1c(C)[nH]c(C(=O)N2CCCC(C(=O)N3CCOCC3)C2)c1C` (stereo unspecified) gave Choline anaer gr inactive and Choline anaer gr early -2.3.
Screening Cc1ccnc(N2CCC(C(=O)O)CC2)n1 returned Choline anaer gr inactive and Choline anaer gr early 0.3.
Cn1c(SCc2cc(F)ccc2F)nnc1-c1sc2ncccc2c1N was read as Choline anaer gr inactive and Choline anaer gr early 1.9.
For O=C(CCc1nc(CSc2nc3cc(Cl)ccc3o2)no1)Nc1c(F)cccc1F the results were Choline anaer gr inactive and Choline anaer gr early 0.87.
For CCCCNC(=O)CSc1nc2cc(-c3ccccc3)[nH]c2c(=O)n1Cc1ccccc1 the results were Choline anaer gr inactive and Choline anaer gr early -0.56.
`Cc1ccc2cc3c(nc2c1)N(S(=O)(=O)c1ccc(F)cc1C)CC3` gave Choline anaer gr inactive and Choline anaer gr early -2.3.
CCc1nn2cc(-c3cccc(OC)c3)nc2s1 was read as Choline anaer gr inactive and Choline anaer gr early -0.73.
Cc1cccc(C(=O)N2CCC[C@@H]2C(=O)NCc2csc(C)n2)c1 was read as Choline anaer gr inactive and Choline anaer gr early -1.9.
For CCN[C@H]1CN(CCCOC)S(=O)(=O)c2sc(S(N)(=O)=O)cc21 the results were Choline anaer gr inactive and Choline anaer gr early 0.52.

Ordered by molar mass (largest number first): part of the list above
For O=C(CCc1nc(CSc2nc3cc(Cl)ccc3o2)no1)Nc1c(F)cccc1F the results were Choline anaer gr inactive and Choline anaer gr early 0.87.
For CCCCNC(=O)CSc1nc2cc(-c3ccccc3)[nH]c2c(=O)n1Cc1ccccc1 the results were Choline anaer gr inactive and Choline anaer gr early -0.56.
CCOc1ccc(-c2nonc2NC(=O)C(C)Oc2ccc(Cl)c(C)c2)cc1C (stereo unspecified) was read as Choline anaer gr inactive and Choline anaer gr early 0.74.
For CC(C)c1ccc(NC(=O)C2CCCN(c3ncnc4c3oc3ccccc34)C2)cc1 (stereo unspecified) the results were Choline anaer gr inactive and Choline anaer gr early 0.11.
Screening O=C(CN1C(=O)CC(c2ccccc2Cl)=Nc2ccccc21)Nc1ccccc1 returned Choline anaer gr inactive and Choline anaer gr early 0.47.
Cn1c(SCc2cc(F)ccc2F)nnc1-c1sc2ncccc2c1N was read as Choline anaer gr inactive and Choline anaer gr early 1.9.
`COC(=O)c1c(C)[nH]c(C(=O)N2CCCC(C(=O)N3CCOCC3)C2)c1C` (stereo unspecified) gave Choline anaer gr inactive and Choline anaer gr early -2.3.
`Cc1ccc2cc3c(nc2c1)N(S(=O)(=O)c1ccc(F)cc1C)CC3` gave Choline anaer gr inactive and Choline anaer gr early -2.3.
CCc1nn2cc(-c3cccc(OC)c3)nc2s1 was read as Choline anaer gr inactive and Choline anaer gr early -0.73.
Screening Cc1ccnc(N2CCC(C(=O)O)CC2)n1 returned Choline anaer gr inactive and Choline anaer gr early 0.3.

Source: PubChem BioAssay
